LANA-nucl inh: inhibitors of KSHV LANA binding to nucleosomes; FITC-LANA1-23 / chicken nucleosome fluorescence polarization; hits give low values; z-score (no concentration beside the values); actives 0.3% (n = 51,000);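 active = both repeat wells score below -2 in polarization z-score versus plate sample wells, excluding overly bright wells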;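 also: 100 nL library stock added to about 30 µL; numbers are from one replicate; some results filed as inactive read as strong as hits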
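test system = FITC-LANA peptide and chicken nucleosomes | amount = 240 nM purified chicken nucleosomes (480 nM peptide binding sites), final | reagent = 50 nM FITC-LANA1-23 probe | medium = TEN-BT buffer, pH 7.5 | doses = single compound addition by pin transfer, 100 nL per well | timing = 10–45 min, room temperature | detection = fluorescence polarization | repeats = duplicate plates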
BasE inh: BasE siderophore biosynthesis inhibition. purified BasE, fluorescence polarization binding displacement. inhibition, % (concentration not given with the values). actives 0.1% (n = 84,000). AID 485350;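 active = both replicates above 25% with normal brightness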;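 also: 0% = negative plate control signal and 100% = positive plate control signal; stock transfer was 100 nL into about 30 µL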
The depositor's hits bear a star; · = not tested or not shown; & = joins results of further samples.

SMILES	LANA-nucl inh	BasE inh
CCOCC(=O)Nc1c(C(=O)Nc2ccc(OCC)cc2)oc2ccccc12	2.2	-3.1
CCc1c(C)c2cc3c(-c4cccc(OC)c4)coc3cc2oc1=O	1.6	-0.1
N#CCS(=O)(=O)c1ccc(Cl)cc1	·	-0.3
COc1ccccc1C(=O)COC(=O)C(C)N=C1NS(=O)(=O)c2ccccc21 (stereo not given)	·	-0.5
CCN(CC)CCSc1nnc2c3ccccc3n(CC(N)=O)c2n1	·	2.9
Cc1ccc(C(=O)C2N=C(N)OC2c2ccccc2)cc1 (stereo not given)	0.5	-1.8
COc1ccc(NC(=O)CSCC(=O)O)c(N2CCOCC2)n1	-0.41	2.9
COC(=O)c1ccc(S(=O)(=O)N(CCO)Cc2ccccc2)n1C	0.015	1.2
CC(C)(C)c1ccc(-c2nc(C#N)c(NCc3ccccc3)o2)cc1	0.17	-0.1
Cc1c2oc3c(C)ccc(C(=O)C4CCCCO4)c3nc-2c(C(=O)C2CCCCO2)c(N)c1=O (stereo not given)	-0.42	·

An excerpt of these results, with bars between the fields:
compound | LANA-nucl inh | BasE inh
N#CCS(=O)(=O)c1ccc(Cl)cc1 | · | -0.3
COc1ccccc1C(=O)COC(=O)C(C)N=C1NS(=O)(=O)c2ccccc21 (stereo not given) | · | -0.5
CCN(CC)CCSc1nnc2c3ccccc3n(CC(N)=O)c2n1 | · | 2.9
Cc1ccc(C(=O)C2N=C(N)OC2c2ccccc2)cc1 (stereo not given) | 0.5 | -1.8
COc1ccc(NC(=O)CSCC(=O)O)c(N2CCOCC2)n1 | -0.41 | 2.9

Following part.
SMILES	LANA-nucl inh	BasE inh
CS(=O)(=O)N1CCC(c2nc3c(nnn3Cc3ccc(F)cc3)c(=O)[nH]2)CC1	3.3	-3.0
NC(=O)CSc1nc(=O)n(Cc2cccnc2)c2c1CCC2	2.6	-2.0
Cc1ccc(OCCN2C(=O)C(C)N(c3ccc(C)cc3)C2=O)cc1 (stereo not given)	·	-0.2
Cc1ccc(C(=O)Nc2cccc(N3CCCC3)c2)cc1	-0.49	-0.3
CCC(=S)/C=C1\Sc2ccc(OC)cc2N1CC	·	-2.7
O=c1nc2cc3[nH]c4c(=O)c5ccccc5c4[nH]c3cc2n1	-0.39	-0.2
CC(c1ccccc1)N1C(=O)CC(Nc2ccc(N(C)C)cc2)C1=O (stereo not given)	-0.83	4.7
CN=c1scc(-c2ccc3c(c2)OCCO3)n1/N=C/c1c[nH]c2ccccc12	·	0.2
CCCN1C(=O)C2C(C(=O)Nc3cccc(OC)c3)C3C=CC2(O3)C1C(=O)NC1CCCCC1C (stereo not given)	-1.3	0.4
CCC(=O)Nc1ccccc1-c1nc2ccccc2[nH]c1=O	2.2	-3.2
Cc1cc(NC(=O)/C=C/c2ccco2)n(-c2nc3ccccc3n2Cc2ccc(Cl)c(Cl)c2)n1	·	-2.5
O=C(Nc1ccc(Br)cc1)c1cnc2ccccn2c1=O	0.13	0.7
CC(=O)N1CCc2cc(N=NC3=C(O)CCCC3=O)ccc21	·	-8.9
O=C(Cn1nnc(-c2ccccc2Br)n1)N(Cc1ccccc1)C1CCS(=O)(=O)C1 (stereo not given)	·	-2.0
C=CCn1c(C)cc(C(=O)COC(=O)C2CC(=O)N(Cc3ccccc3)C2)c1C (stereo not given)	·	-0.7
NC(=O)Cn1cnc2ccccc21	0.14	0.7
CC(NC(=O)CSc1n[nH]c(N)n1)C1CC2CCC1C2 (stereo not given)	·	-0.1
COc1ccc(CCC(=O)Nc2cc(Cl)ccc2Sc2nncn2C)cc1	·	1.2
CCN(CC)C(=O)C1CCN(S(C)(=O)=O)CC1	2.5	-2.5
N#Cc1c(-c2ccco2)cc(-c2cccc(S(=O)(=O)N3CCCCC3)c2)n2c1nc1ccccc12	·	3.0
O=C(CSc1nnc(-c2ccc(Cl)cc2Cl)n1Cc1ccco1)c1ccc[nH]1	·	-3.9
CCOc1nc(NCCc2ccc(OC)c(OC)c2)nc(N2CCN(c3ccc(OC)cc3)CC2)n1	-0.61	2.0
Cc1cccc(N(CC(N)=O)S(C)(=O)=O)c1C	·	1.0
c1cc(CNc2ccc3c(c2)OCCO3)ccn1	0.003	11
COC(=O)c1ccc(CC(C#N)(c2ccccc2)c2ccccc2)o1	·	0.4
CC1(C)CC(NC(=O)/C=C/C(=O)NC2CC(C)(C)NC(C)(C)C2)CC(C)(C)N1	·	3.0
Cc1ccc(S(=O)(=O)NC(=O)Nc2[nH]n(-c3ccccc3)c(=O)c2C2=NCCCCC2)cc1	·	1.4
Cc1nn(Cc2ccccc2)c(Cl)c1/C=N/n1c(C)nc2ccccc2c1=O	·	2.5
O=C(NCc1ccco1)c1ccccc1NCCOc1ccc(Cl)cc1	·	2.0
O=C(NCCN1CCOCC1)c1ccc(-n2ccc3ccccc32)s1	0.5	1.5

Fetched by structure from the entries so far:
SMILES	LANA-nucl inh	BasE inh
O=C(NCCN1CCOCC1)c1ccc(-n2ccc3ccccc32)s1	0.5	1.5
Cc1cccc(N(CC(N)=O)S(C)(=O)=O)c1C	·	1.0

Further compounds
SMILES	LANA-nucl inh	BasE inh
CCc1n[nH]c(=O)n1Cn1c(CC)n[nH]c1=O	·	0.3
Nc1cccc2c1C(=O)N(C(=O)c1ccc(S(=O)(=O)N3CCCCCC3)cc1)C2=O	·	3.3
COc1cc2c(cc1OC)CN(CC1=CCC3CC1C3(C)C)CC2 (stereo not given)	0.21	-1.5
COC(=O)c1ccsc1NC(=O)C1=COCCO1	0.78	-0.2
COc1cccc(NC(=O)CN(C)C(=O)Cc2ccccc2F)c1	·	2.1
Cc1nn(CCC#N)c(NC(=O)c2ccc(Cl)cc2)c1P(=O)(Nc1ccc(F)cc1)N1CCOCC1 (stereo not given)	·	-3.1
CC(C)[C@H](NC(=O)Cc1ccccc1)C(=O)OCn1nnc2ccccc2c1=O	·	1.9
C=CCNCc1cc2cc(C)cc(C)c2[nH]c1=O	-0.52	-1.0
CCC(=O)N(Cc1cc2ccccc2[nH]c1=O)C(C)C	-0.85	1.3
O=C(CCn1cnc2onc(-c3ccc(F)cc3)c2c1=O)Nc1cccc(Cl)c1	·	4.4
Cc1nc2ccc(NC(=O)C3=NN(C)C(=O)CC3)cc2s1	·	0.0
CC(=O)N1C/C(=N/NC(N)=S)c2cc(Br)ccc21	0.41	-0.1
CC(=O)Nc1ccc(S(=O)(=O)NCc2nc(-c3ccccc3)no2)cc1	1.2	-2.0
N#CC(C#N)=c1ccc(=C(C#N)c2ccc(N3CCCC3)cc2)cc1	·	-5.8
C/C=C/C=N/N=C/C1=C(N2CCOCC2)C(=C\c2ccccc2)/CC1	·	0.3
O=C(Nc1ccc2c(c1)OCO2)Oc1ccccc1	-0.15	·
COC(=O)c1sccc1NC(=O)c1cc(S(=O)(=O)N(C)C)oc1C	·	-0.4
CC(N=C1SCCN1C(=O)c1ccc(NC(N)=O)cc1)c1ccccc1 (stereo not given)	·	1.9
CCCCNc1nc(=S)nc(N(C)C)[nH]1	0.69	3.4
Cc1noc(C)c1CN(C(=S)Nc1cccc(Cl)c1)c1ccccc1	·	0.3
O=C(CSc1nc2ccccc2o1)NN=C1CCCC1	-0.8	-0.3
NC(=O)c1ncn([C@@H]2O[C@H](CO)[C@H](O)C2O)n1 (stereo not given in full)	-0.23	-2.3
Clc1nc(-c2ccccc2)nc2ccsc12	0.57	·
CCc1nc(SCC(=O)NCc2ccccc2)c2c(=O)n(C)c(=O)n(C)c2n1	-1.4	-0.5
N#CCCN(Cc1ccco1)S(=O)(=O)c1ccccc1	0.41	0.9
NC(=O)N1C(=O)C=CC1=O	-0.94	0.8
CCC(C)(C)NC(=O)CCn1ccc(C)n1	-0.38	0.3
O=C(Sc1ccc(Cl)cc1)c1cnn(-c2ccccc2)c1C(F)(F)F	·	2.1
CC(=O)NC(C(=O)N1CCN(S(=O)(=O)c2cccs2)CC1)C(C)C (stereo not given)	·	-0.5
Nc1nc(SCC(=O)NCCc2ccccc2)n[nH]1	·	2.6
NC(=S)N/N=C/c1ccccc1OCC(=O)O	-0.97	2.8
O=C(/C=C/c1ccccc1)Nc1ccc2c(c1)OCCO2	-0.64	-1.0
Brc1ccc(/C=C2\CCC(C3=CCCC3)=C2N2CCOCC2)cc1	·	0.8
Cc1cccc(NC(=O)CC2C(=O)NCCN2C(=S)Nc2ccccc2)c1 (stereo not given)	0.26	2.5
CCc1ccc(NC(=O)CSc2n[nH]c(=O)n2C2CC2)cc1	·	-5.4
CCC(c1nnnn1C1CCCC1)N1CCN(Cc2ccccc2)CC1 (stereo not given)	0.019	-2.4
Cc1csc(/C(=N\O)c2csc(C)n2)n1	·	-0.8
CCCN1CCC(NN2CCOCC2)CC1	-0.82	-0.2
CN(C)/C=N/S(=O)(=O)c1cc(Cl)sc1Cl	1.4	0.9
C1CCC2(C1)OCC1(CO2)COC2(CCCC2)OC1	0.64	-1.1
O=C1OC(N2CCc3ccccc3C2)c2ccccc21 (stereo not given)	·	-0.8
S=c1nc[nH]c2c1cnn2-c1ccccc1	·	-3.1
O=C(Nc1cccc(-c2nnc3n2CCCCC3)c1)C1=CN2CCS(=O)(=O)N=C2C=C1	·	-0.1
Cc1ccc(S(=O)(=O)N2CCCC(NC(=O)N3CCN(c4ccccc4)CC3)C2)cc1 (stereo not given)	-0.63	-1.2
Cc1nc2sccn2c1C(=O)C(F)(F)F	·	-0.1
O=C(Oc1ccc(OC(=O)N2CCOCC2)cc1)N1CCOCC1	-0.081	-0.4
COC(=O)c1ccccc1NC(=O)CN1CCC(C)CC1	0.21	0.1
Cc1cc(=O)n(CC(C)C)c(O)c1C#N	0.22	-1.1
N#CCSc1ccc(-c2ccco2)nn1	0.47	0.7
CN(C)S(=O)(=O)CC12CCC(CC1=O)C2(C)C (stereo not given)	-0.87	0.9

The list goes on.
SMILES	LANA-nucl inh	BasE inh
CCn1c(CSc2nc3ccccc3s2)nnc1SCc1ccc(C(=O)OC)o1	·	-1.7
C/C(=N/O)c1cc(C(C)(C)C)c(O)c(C(C)(C)C)c1	-0.2	2.2
CCC1CCc2c(sc3ncnc(N4CCOCC4)c23)C1 (stereo not given)	·	1.7
COc1ccc(C(=O)c2sc3nc(-c4ccco4)cc(C(F)(F)F)c3c2N)cc1OC	2.1	-6.3
C=C(C)CSc1nc2ccccc2s1	·	0.2
CC(C)N(Cn1nc(-c2ccccc2)n(-c2ccccc2)c1=S)C(C)C	·	-0.8
CCn1nnc2c(NC3CCCCC3)ncnc21	0.51	1.4
Cc1cc(Cl)nc(C(C)C)n1	·	1.3
COc1cc(/C=N/n2nnnc2N)ccc1OCc1ccc(Cl)cc1Cl	0.38	4.7
O=C(C1CCCO1)N1CCN(c2ccc(Cl)c(Cl)c2)CC1 (stereo not given)	-0.33	2.4

Full records as entered above:
CCn1nnc2c(NC3CCCCC3)ncnc21 as listed: LANA-nucl inh: 0.51; BasE inh: 1.4
O=C(C1CCCO1)N1CCN(c2ccc(Cl)c(Cl)c2)CC1 (stereo not given) as listed: LANA-nucl inh: -0.33; BasE inh: 2.4

(more compounds)
SMILES	LANA-nucl inh	BasE inh
O=C(Cc1ccc(Cl)cc1)NCC1COC2(CCCC2)O1 (stereo not given)	-1	0.8
O=C(c1ccc2c(c1)CCN2S(=O)(=O)c1ccccc1)N1CCN(c2ccccc2)CC1	-0.26	-0.1
COc1ccc2c(c1)C(=O)N(c1ccccc1)C(=O)C2	·	1.4
N#Cc1ccc(-c2cccc(Cl)c2Cl)o1	-0.11	0.4
Cc1sc2ncnc(OCC(=O)N3CC(C)CC(C)C3)c2c1C (stereo not given)	·	2.4
COC(=O)c1c(N=CN(C)C)c(C#N)c2n1CCCC2	0.2	1.4
CN(Cc1ccccc1)C(=S)Nc1ccc2nc3n(c(=O)c2c1)CCCCC3	-0.8	-2.6
O=C1C(=O)N(CCCN2CCOCC2)C(c2cccs2)/C1=C(\O)c1ccccc1 (stereo not given)	·	0.7
CCN1C(=O)/C(=C2\SC(=O)N(Cc3ccccc3)C2=O)c2ccccc21	0.36	1.2
CCC(C(=O)N1CCCCC1C)c1ccccc1 (stereo not given)	-1.1	3.1
C#CCSc1nc(-c2cccs2)cc(C(F)(F)F)c1C#N	-0.2	4.5
COc1ccc(C(C)C)cc1S(=O)(=O)N1CCCCC1C (stereo not given)	0.78	-0.2
Cc1cccc(C)c1NC(=O)CNC(=O)C(C)Oc1ccccc1C#N (stereo not given)	·	-0.4
Cc1c(C)c(O)c(Cc2nc3ccccc3[nH]2)c(C)c1O	·	3.8
Cc1cc(C(=O)Nc2ccc(Cl)cc2)no1	0.37	-2.3
c1ccc(-c2oc3ncn4ncnc4c3c2-c2ccccc2)cc1	0.27	0.8
O=C1CN(CC(=O)NC(=O)NCc2ccccc2)CCN1	·	2.4
C=CCN1C=C/C(=C\C=C(C#N)C#N)c2ccccc21	-0.15	-2.5
Oc1oc(-c2ccco2)nc1C=Nc1ccccc1	·	0.7
C[C@]12C=CC(=O)C=C1CCC1C2C(=O)C[C@@]2(C)C1CC[C@]2(O)C(=O)CO (stereo not given in full)	1.3&-0.66	1.1
CNS(=O)(=O)c1ccc2c(c1)OCCO2	·	-2.5
CN(C)S(=O)(=O)c1cccc(COC(=O)c2n[nH]c3ccccc23)c1	·	-2.8
CCCCN1C=C(C(=O)OC)C(c2cc(C)ccc2C)C(C(=O)OC)=C1	0.64	-1.9

An excerpt; count on the stated rates, not on these rows.
